MT1-MMP act inh: inhibitors of human MT1-MMP activation | GFP/RFP ratio change, % at 20 µM | AID 651647 | 0.061% of 360,000 active | HT1080 RFP-PRO-GFP cells, GFP/RFP ratio fluorescence, overnight; percent of plate control window, DMSO zero;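 active = GFP/RFP ratio change of at least 30% with cell ATP level not reduced by more than half and red fluorescence within 50% of control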; note: strong numbers were not always called active
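Read-out: GFP/RFP fluorescence ratio; Test system: RFP-PRO-GFP reporter HT1080 cells; Compound dosing: single-point 20 µM compound, 1% DMSO; Times: overnight compound exposure at 37 °C.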
Yeast UUG start: alters start codon recognition fidelity in yeast; S. cerevisiae UUG-firefly luciferase reporter, luminescence/redox ratio; activity score, % at 18.7 µM; 0.13% of 350,000 active;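 active = replicate mean at a twofold rise or more, about +100% in these data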;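 note: firefly luciferase made from a UUG start codon reports start codon fidelity; reporter light over untreated wells divided by growth signal over untreated wells; some hits fall short of that in this replicate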
Rce1 inh: blocks yeast Ras-converting enzyme | Q03530 | yeast membranes, quenched prenylated peptide cleavage fluorescence | calls only | 0.27% of 290,000 active | AID 2563;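 active = fall in fluorescence gain of 50% or more versus controls, with final raw signal at or below 3038400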;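 note: plate controls were neutral control wells for no effect and wells lacking membranes for full effect; tested at 10 µM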
Target sequence (Q03530 whole entry, looked up): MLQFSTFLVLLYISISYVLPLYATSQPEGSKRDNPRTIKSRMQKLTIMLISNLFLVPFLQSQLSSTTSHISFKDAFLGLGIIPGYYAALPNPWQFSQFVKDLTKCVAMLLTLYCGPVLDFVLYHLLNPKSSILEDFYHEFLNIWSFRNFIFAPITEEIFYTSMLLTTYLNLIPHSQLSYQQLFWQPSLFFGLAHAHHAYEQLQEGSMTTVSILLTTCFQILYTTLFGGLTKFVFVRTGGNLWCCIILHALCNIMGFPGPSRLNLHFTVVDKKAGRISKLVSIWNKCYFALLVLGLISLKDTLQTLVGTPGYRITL
eIF4H FP inh: inhibitors of RNA binding by human eIF4H. AID 2012. eIF4H fluorescence polarization binding assay. Q15056. 0.94% of 290,000 active. inhibition, % at 35 µM;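 active = 50% or more with normal probe brightness, or confirmed in later tests; about a fifth of its hits are not listed in these tables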;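 note: calls also rest on retests at 20 µM and on dose response follow-up; 0% = protein and probe with vehicle and 100% = probe without protein; strong numbers were not always called active; many hits fall short of the cut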
HIV Env fusion: blocks HIV Env-driven cell-cell fusion | inhibition, % at 12.3 µM | HeLa-JRFL Env/CEM21 cell fusion, luciferase | 1.1% of 360,000 active | AID 651610;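 active = mean replicate inhibition score of at least 50 and every replicate individually at or above 50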;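 note: 0% = plate neutral controls and 100% = maraviroc near 300 nM; one replicate is shown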
PABP FP inh: PABP-poly(A) binding inhibition; PABP-poly(A) RNA binding, fluorescence polarization; P11940; inhibition, % at 35 µM; 1% of 290,000 active;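 active = 50% or more with normal probe brightness, or confirmed in later tests; about a fifth of its hits are not listed in these tables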;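 note: calls also rest on retests at 20 µM and on dose response follow-up; controls were probe without protein and protein plus probe with vehicle; some compounds called inactive have numbers as strong as hits; many hits fall short of the cut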
CSC inhib: blocks cancer stem cells. cancer stem cell-like cells viability, luminescence. inhibition, % at 7.5 µM. 1.1% of 300,000 active. AID 2717;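 active = mean at 75% or more and at least half the replicates too; tested in HMLE shEcad cells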;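 note: 0% = median of negative and 100% = median of positive control wells; the first replicate is given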
MT1-MMP act inh RFP: also measured in MT1-MMP act inh; calls as there; RFP signal change, %; measured here: RFP expression control read;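 0 = vehicle wells; hits needed this value within 50% of zero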
Numbers without * were called inactive. Some of the compounds tested; the hit share may differ from the screen's.

Cc1cc(NC(=O)c2csc([C@@H]3O[C@H](CO)[C@H](O)[C@H](O)[C@H]3O)n2)n(C)n1 was read as MT1-MMP act inh -1, Yeast UUG start -15, HIV Env fusion 18 and MT1-MMP act inh RFP 3.
For CC1CN(c2nc(Nc3ccccc3)nc(N)c2[N+](=O)[O-])CC(C)O1 (centres undefined) the results were MT1-MMP act inh -1, Yeast UUG start -5, Rce1 inh inactive, eIF4H FP inh -6, HIV Env fusion -7, PABP FP inh 0, CSC inhib 5 and MT1-MMP act inh RFP -10.
`COc1ccc(/C=C/C(=O)NCc2cnn(C)c2C)cc1COc1ccc(Br)cc1` gave MT1-MMP act inh 2, Yeast UUG start -18, Rce1 inh inactive, eIF4H FP inh 0, PABP FP inh 8 and MT1-MMP act inh RFP -4.
Cc1ccc(NC(=O)C2(C)CCN2C(=O)CCC2CCCC2)cc1C (centres undefined) was read as MT1-MMP act inh 7, Yeast UUG start 16, HIV Env fusion 8 and MT1-MMP act inh RFP -1.
For CCOC(=O)c1cnc(SCc2cccc3ccccc23)nc1N the results were MT1-MMP act inh -5, Yeast UUG start -19, Rce1 inh inactive, eIF4H FP inh -2, HIV Env fusion -32, PABP FP inh -1, CSC inhib 26 and MT1-MMP act inh RFP -3.
Screening CN(C(=O)c1ccc(NC(=O)Cc2cccc(NC(=O)C3CCN(C(=O)CCc4ccccc4)CC3)c2)cc1)C1CCCC1 returned MT1-MMP act inh 5, Yeast UUG start 0, HIV Env fusion -76, CSC inhib -25 and MT1-MMP act inh RFP -5.
CCc1ccc(CCC(=O)Nc2ccc(S(N)(=O)=O)cc2)o1 was read as MT1-MMP act inh -2, Yeast UUG start -11, Rce1 inh inactive, eIF4H FP inh -11, HIV Env fusion 4, PABP FP inh 2, CSC inhib -6 and MT1-MMP act inh RFP 4.
Cc1ccc(S(=O)(=O)Oc2ccc(C3C4=C(CCCC4=O)OC4=C3C(=O)CCC4)cc2)cc1 was read as MT1-MMP act inh -10, Yeast UUG start -17, Rce1 inh inactive, eIF4H FP inh -4, HIV Env fusion -97, PABP FP inh -10, CSC inhib -11 and MT1-MMP act inh RFP -26.
`Cc1ccc(-c2nnn(CC(=O)N(Cc3cccs3)C(C(=O)NC3CCCC3)c3ccco3)n2)o1` (centres undefined) gave MT1-MMP act inh 2, Yeast UUG start 4, Rce1 inh inactive, eIF4H FP inh -13, HIV Env fusion -72, PABP FP inh -5, CSC inhib -9 and MT1-MMP act inh RFP 2.
For COc1ccc(-c2oc3ccc(-c4ccc(OC)nc4)cc3c2C#CC2(O)CCCCC2)cc1 the results were MT1-MMP act inh 32*, Yeast UUG start -20, Rce1 inh inactive, eIF4H FP inh -5, HIV Env fusion 41, PABP FP inh -3 and MT1-MMP act inh RFP -2.9*.
`CCn1c(SCc2ccc(OC)cc2)nnc1-c1ccncc1` gave MT1-MMP act inh 0, Yeast UUG start -9, Rce1 inh inactive, eIF4H FP inh -6, PABP FP inh -10, CSC inhib -15 and MT1-MMP act inh RFP 3.
For COC(=O)C1=CO[C@@H](O[C@@H]2O[C@H](CO)[C@@H](O)[C@H](O)[C@H]2O)C2C1CC(O)O[C@H]2C (some centres undefined) the results were MT1-MMP act inh 1, Yeast UUG start 4, HIV Env fusion -9, CSC inhib -18 and MT1-MMP act inh RFP 5.
COC(C[C@@H]1O[C@H]1[C@H](O)COCc1ccccc1)OC was read as MT1-MMP act inh 0, Yeast UUG start -2, Rce1 inh inactive, eIF4H FP inh -1, HIV Env fusion 0, PABP FP inh 2 and MT1-MMP act inh RFP 3.
For O=C(Nc1nc(-c2cccs2)c(C(=O)C(F)(F)F)s1)c1ccco1 the results were MT1-MMP act inh 1, Rce1 inh inactive, eIF4H FP inh 2, HIV Env fusion 12, PABP FP inh 6, CSC inhib 7 and MT1-MMP act inh RFP -1.
For COc1cc2cnc(-c3ccccc3)c(-c3ccc([N+](=O)[O-])cc3)c2cc1OC the results were MT1-MMP act inh 1, Yeast UUG start -1, HIV Env fusion 18, CSC inhib -2 and MT1-MMP act inh RFP 0.
O=C(/C=C/c1ccco1)c1ccc(O)cc1 was read as Rce1 inh inactive, eIF4H FP inh 48, PABP FP inh 2 and CSC inhib 1.
For Cc1ccc(OCC(=O)NCC(=O)Nc2ccc(F)c(F)c2F)c([N+](=O)[O-])n1 the results were MT1-MMP act inh 3, Rce1 inh inactive, eIF4H FP inh 10, HIV Env fusion -20, PABP FP inh -7, CSC inhib -13 and MT1-MMP act inh RFP 2.
Screening Cc1[nH]c(=O)[nH]c(=O)c1S(=O)(=O)Nc1ccc(F)c([N+](=O)[O-])c1 returned MT1-MMP act inh 0, Yeast UUG start -3, Rce1 inh inactive, eIF4H FP inh -7, HIV Env fusion 8, PABP FP inh -3, CSC inhib -10 and MT1-MMP act inh RFP 2.
`O=C1Nc2ccc(F)cc2C12OCCO2` gave MT1-MMP act inh 1, Yeast UUG start -12, Rce1 inh inactive, eIF4H FP inh -5, HIV Env fusion -36, PABP FP inh 2, CSC inhib -1 and MT1-MMP act inh RFP 3.
`Cc1ccc(CSc2nnc3nc(C)cc(C)n23)cc1` gave MT1-MMP act inh 2, Yeast UUG start -13, Rce1 inh inactive, eIF4H FP inh 0, PABP FP inh -3, CSC inhib 4 and MT1-MMP act inh RFP 3.

Reprinted from above, two compounds:
`O=C1Nc2ccc(F)cc2C12OCCO2` gave MT1-MMP act inh 1, Yeast UUG start -12, Rce1 inh inactive, eIF4H FP inh -5, HIV Env fusion -36, PABP FP inh 2, CSC inhib -1 and MT1-MMP act inh RFP 3.
`Cc1ccc(CSc2nnc3nc(C)cc(C)n23)cc1` gave MT1-MMP act inh 2, Yeast UUG start -13, Rce1 inh inactive, eIF4H FP inh 0, PABP FP inh -3, CSC inhib 4 and MT1-MMP act inh RFP 3.

Further compounds follow.
For COc1ccc(C(C)NC(=O)C23CC4CC(CC(C4)C2)C3)cc1 (centres undefined) the results were MT1-MMP act inh 5, Yeast UUG start -14, Rce1 inh inactive, eIF4H FP inh -3, HIV Env fusion 10, PABP FP inh -14, CSC inhib -20 and MT1-MMP act inh RFP -4.
For CCOc1ccc(NC(=O)CN(C)C(=O)c2ccc(C)o2)cc1OCC the results were MT1-MMP act inh 1, Yeast UUG start -3, Rce1 inh inactive, eIF4H FP inh -8, HIV Env fusion -12, PABP FP inh 2, CSC inhib -9 and MT1-MMP act inh RFP -1.
COc1cc(Br)c(CC(=O)NNC(=O)c2ccc(F)cc2)cc1OC was read as MT1-MMP act inh 7, Yeast UUG start -8, HIV Env fusion -7, CSC inhib -15 and MT1-MMP act inh RFP -3.
`O=C(Cc1cc(=O)[nH]c(=O)[nH]1)NCc1ccccc1` gave MT1-MMP act inh 0, Yeast UUG start 8, Rce1 inh inactive, eIF4H FP inh -1, HIV Env fusion 2, PABP FP inh 28, CSC inhib -10 and MT1-MMP act inh RFP 3.
Screening O=C(COC(=O)c1cc(Cl)ccc1O)NNC(=O)c1ccccc1F returned MT1-MMP act inh -7, Yeast UUG start 3, HIV Env fusion -429, CSC inhib -4 and MT1-MMP act inh RFP -1.
For CCOCCCn1c(=S)[nH]c2cc(C(=O)N3CCOCC3)ccc2c1=O the results were MT1-MMP act inh 2, Yeast UUG start -19, Rce1 inh inactive, eIF4H FP inh 2, HIV Env fusion -53, PABP FP inh -8, CSC inhib 4 and MT1-MMP act inh RFP 1.
`COCC(C)n1c(C)cc(C(=O)COC(=O)CN=C2NS(=O)(=O)c3ccccc32)c1C` (centres undefined) gave MT1-MMP act inh 4, Yeast UUG start -8, Rce1 inh inactive, eIF4H FP inh 6, HIV Env fusion 20, PABP FP inh -11, CSC inhib 2 and MT1-MMP act inh RFP 7.
`O=C(NCc1cccs1)C1CC(=O)N(C2CCCC2)C1` (centres undefined) gave MT1-MMP act inh 2, Yeast UUG start -25, Rce1 inh inactive, eIF4H FP inh -6, PABP FP inh -7, CSC inhib -2 and MT1-MMP act inh RFP 0.
For O=c1c2[nH]c3cccc(Cl)c3c2ncn1Cc1ccncc1 the results were MT1-MMP act inh -2, Yeast UUG start -4, Rce1 inh inactive, eIF4H FP inh -3, PABP FP inh 8, CSC inhib 1 and MT1-MMP act inh RFP -7.
`CCN(CC)C(=O)CSc1nsc(SCC(=O)N(CC)CC)c1C#N` gave MT1-MMP act inh 1, Yeast UUG start -15, eIF4H FP inh 2, PABP FP inh 1, CSC inhib -1 and MT1-MMP act inh RFP 1.
Screening Cc1nc(N2CCN(C)CC2)[nH]c(=O)c1Cc1cccc2ccccc12 returned MT1-MMP act inh 1, Yeast UUG start -8, Rce1 inh inactive, eIF4H FP inh 4, HIV Env fusion -7, PABP FP inh -3, CSC inhib -13 and MT1-MMP act inh RFP 3.
Screening O=C(Cc1ccccc1)NN=Cc1ccccc1 returned MT1-MMP act inh -2, Yeast UUG start -30, HIV Env fusion -10 and MT1-MMP act inh RFP 1.
COc1ccc(CCNC(=O)c2cc(S(=O)(=O)N(C)C)ccc2N2CCCC2)cc1 was read as MT1-MMP act inh -1, Yeast UUG start 3, Rce1 inh inactive, eIF4H FP inh -7, HIV Env fusion -4, PABP FP inh 7 and MT1-MMP act inh RFP 2.
Screening CCC(=O)c1ccc(N2CCN(C(=O)c3cccc(F)c3)CC2)c(F)c1 returned MT1-MMP act inh 2, Rce1 inh inactive, eIF4H FP inh -2, HIV Env fusion -3, PABP FP inh -11, CSC inhib -13 and MT1-MMP act inh RFP 0.
CC1CCCCC1NC(=O)COc1ccc(-n2cnnn2)cc1 (centres undefined) was read as MT1-MMP act inh 3, Yeast UUG start -10, Rce1 inh inactive, eIF4H FP inh 3, PABP FP inh 0, CSC inhib -11 and MT1-MMP act inh RFP 8.
Screening O=[N+]([O-])c1cncc([N+](=O)[O-])c1Nc1cccc(O)c1 returned MT1-MMP act inh 1, Yeast UUG start -4, Rce1 inh inactive, eIF4H FP inh 10, HIV Env fusion -35, PABP FP inh 14, CSC inhib 14 and MT1-MMP act inh RFP -3.
`Cc1nn(CCCC(=O)NC2CCC(C)CC2)c(=O)c2nn(-c3ccccc3)c(C)c12` (centres undefined) gave MT1-MMP act inh 0, Yeast UUG start 8, Rce1 inh inactive, eIF4H FP inh -11, HIV Env fusion 0, PABP FP inh -6, CSC inhib -3 and MT1-MMP act inh RFP -4.
Screening O=C(c1cc(=O)[nH]c2ccccc12)N1CCN(c2ccccc2)CC1 returned MT1-MMP act inh 2, Yeast UUG start -9, Rce1 inh inactive, eIF4H FP inh 0, HIV Env fusion -10, PABP FP inh -8, CSC inhib -14 and MT1-MMP act inh RFP 1.
For CC(C)CC(=O)NC(=S)Nc1ccccc1C(=O)Nc1ccccc1 the results were MT1-MMP act inh 2, Rce1 inh inactive, eIF4H FP inh -1, PABP FP inh -4, CSC inhib -10 and MT1-MMP act inh RFP 3.
For O=C(CC1CC2CCC1C2)OCC(=O)c1c[nH]c2ccccc12 (centres undefined) the results were MT1-MMP act inh 4, Yeast UUG start -18, Rce1 inh inactive, eIF4H FP inh -7, HIV Env fusion -4, PABP FP inh -3, CSC inhib -11 and MT1-MMP act inh RFP 1.

Compounds listed so far with a thiophene ring, fused or not, in the order listed:
`Cc1ccc(-c2nnn(CC(=O)N(Cc3cccs3)C(C(=O)NC3CCCC3)c3ccco3)n2)o1` (centres undefined) gave MT1-MMP act inh 2, Yeast UUG start 4, Rce1 inh inactive, eIF4H FP inh -13, HIV Env fusion -72, PABP FP inh -5, CSC inhib -9 and MT1-MMP act inh RFP 2.
For O=C(Nc1nc(-c2cccs2)c(C(=O)C(F)(F)F)s1)c1ccco1 the results were MT1-MMP act inh 1, Rce1 inh inactive, eIF4H FP inh 2, HIV Env fusion 12, PABP FP inh 6, CSC inhib 7 and MT1-MMP act inh RFP -1.
`O=C(NCc1cccs1)C1CC(=O)N(C2CCCC2)C1` (centres undefined) gave MT1-MMP act inh 2, Yeast UUG start -25, Rce1 inh inactive, eIF4H FP inh -6, PABP FP inh -7, CSC inhib -2 and MT1-MMP act inh RFP 0.
